# Compound activity from PubChem.
# Ecoli rRNA inh – inhibits bacterial ribosomal RNA function over humanized ribosomes; GFP signal change (wild-type ribosome), % (test concentration not listed); 1.6% of 350,000 active; E. coli WT GFP vs humanized-ribosome RFP mutants, fluorescence, 24 h; active compounds read low; DMSO median 0, no signal -100; AID 720706;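 active = significant combined selectivity score with lowered wild-type GFP, culture density cut under 30%, mutant RFP and density less affected; inactive = any of these conditions unmet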; also: one replicate is shown; some compounds called inactive have numbers as strong as hits
# Ecoli growth – E. coli growth inhibition | 0.21% of 330,000 active | OD600 absorbance (no concentration beside the values) | Escherichia coli growth, OD600, 23 h; active compounds read low;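 active = OD600 absorbance below the run mean of sample wells minus 3.6 SD, in any replicate, cut at about 0.56 in these data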;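 also: stock transfer was 300 nL into about 60 µL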
# HNF4A DNA FP – change in binding of human HNF4 alpha to DNA. 0.3% of 360,000 active. P41235. AID 1224865. activity change, % at 10 µM. HNF4a-FITC DNA binding, fluorescence polarization, 1 h; in the data active = activity change above about 30%, passing the limit was not always enough;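 also: controls were the assay level and a saturating level of protein; the project sought stronger binding though the title names inhibitors; some compounds called inactive have numbers as strong as hits; positive values seem to mean higher polarization but the record does not say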
# Target sequence (P41235 whole entry, looked up): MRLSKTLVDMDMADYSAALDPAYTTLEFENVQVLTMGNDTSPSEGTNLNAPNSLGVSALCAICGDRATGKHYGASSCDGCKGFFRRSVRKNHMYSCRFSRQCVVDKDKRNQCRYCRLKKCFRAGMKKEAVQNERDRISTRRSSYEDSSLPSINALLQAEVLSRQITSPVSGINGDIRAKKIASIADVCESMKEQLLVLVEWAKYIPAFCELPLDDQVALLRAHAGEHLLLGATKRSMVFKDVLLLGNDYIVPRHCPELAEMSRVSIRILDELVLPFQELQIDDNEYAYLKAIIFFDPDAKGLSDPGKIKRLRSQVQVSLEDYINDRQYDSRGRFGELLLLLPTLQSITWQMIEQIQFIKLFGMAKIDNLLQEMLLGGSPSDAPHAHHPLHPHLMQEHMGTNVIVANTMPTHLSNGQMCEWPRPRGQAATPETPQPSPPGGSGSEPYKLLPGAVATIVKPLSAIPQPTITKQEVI
# MLL AF4-AF9 inh – blocks AF4 peptide binding to human AF9. AlphaScreen, biotin-AF4 peptide binding to FLAG-AF9. 0.47% of 350,000 active. inhibition, % at 10 µM. P42568;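 active = every replicate reaching a set inhibition limit, whatever the replicate mean, cut at about 25% in these data; inconclusive = mean inhibition reaches that limit but some replicates miss it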;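 also: 0% = plate neutral control median and 100% = total signal loss; the record names both 10 and 1 µM as test concentration; the first replicate is given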
# Target sequence (P42568 whole entry, looked up): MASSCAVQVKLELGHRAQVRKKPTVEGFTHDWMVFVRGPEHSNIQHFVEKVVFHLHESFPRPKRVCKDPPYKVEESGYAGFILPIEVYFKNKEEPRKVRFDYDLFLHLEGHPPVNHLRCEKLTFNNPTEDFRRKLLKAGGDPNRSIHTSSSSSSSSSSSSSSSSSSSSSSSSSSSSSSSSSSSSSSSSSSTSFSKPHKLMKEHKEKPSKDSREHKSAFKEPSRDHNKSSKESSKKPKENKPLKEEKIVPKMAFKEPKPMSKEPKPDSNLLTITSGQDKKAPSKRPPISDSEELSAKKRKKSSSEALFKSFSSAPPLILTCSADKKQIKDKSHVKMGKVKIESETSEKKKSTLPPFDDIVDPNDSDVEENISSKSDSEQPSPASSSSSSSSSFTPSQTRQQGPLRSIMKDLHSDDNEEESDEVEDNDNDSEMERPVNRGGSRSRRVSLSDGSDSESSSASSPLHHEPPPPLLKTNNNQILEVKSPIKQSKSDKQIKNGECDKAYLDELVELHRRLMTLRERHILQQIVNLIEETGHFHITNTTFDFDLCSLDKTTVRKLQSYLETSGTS
# Vif A3G – inhibitors of Vif binding to APOBEC3G peptide, primary screen, biochemical, TR-FRET, GST-Vif 1-94, biotin-A3G peptide, dose response retest (AID 1117319) | 0.57% of 260,000 active | TR-FRET GST-Vif / biotin-A3G peptide binding; higher % means a stronger effect; test concentration not given here; strong numbers were not always called active | inhibition, %; hits with a dose series show IC50 in µM;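 active = above the screen mean plus three standard deviations and confirmed in dose response; inconclusive = results disagree or hit not tested in dose response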;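 also: Vif residues 1-94 fused to GST binding biotinylated APOBEC3G peptide 110-148; 0% = full assay without inhibitor and 100% = GST in place of GST-Vif; retest series ran down from 100 µM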
# FGF22 binding – binders of recombinant human FGF22 by thermal shift | SYPRO orange fluorescence; percent of sucrose octasulfate shift, DMSO zero | 1.5% of 340,000 active | calls only at 9.99 µM | AID 651658;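 active = melting point raised past a set limit in the mean and every replicate; inconclusive = no clear call; three in four hits are not shown here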
# ALR H2O2 inh – human ALR oxidase inhibition via reduced H2O2; purified ALR, DTT oxidation, H2O2 HRP-luminol luminescence; AID 485317; inhibition, % (no concentration beside the values); 3.8% of 290,000 active; P55789;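 active = mean and each replicate at 75% or more; inconclusive = only one of the two met; inactive = neither met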;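 also: stock transfer was 7.5 nL into about 7.5 µL; 0% = neutral wells and 100% = wells with inactivated enzyme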
# Ecoli rRNA inh OD600 – also measured in Ecoli rRNA inh; calls as there; OD600 change, %; measured here: OD600 growth;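 optical density of the mix in the first replicate; 0 = DMSO median and -100 = no signal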
# Ecoli rRNA inh RFP – further read-out of Ecoli rRNA inh, marked with its call; RFP signal change, %; measured here: RFP humanized mutant strains;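 first replicate; 0 = DMSO median and -100 = no signal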
# An asterisk follows results filed as active; i = inactive; ? = inconclusive; / = not tested or not shown; + = active, no number; & = joins results of further samples. Only part of the results is shown; rates above refer to the full screens.
SMILES,Ecoli rRNA inh,Ecoli rRNA inh OD600,Ecoli rRNA inh RFP,Ecoli growth,HNF4A DNA FP,MLL AF4-AF9 inh,Vif A3G,FGF22 binding,ALR H2O2 inh
CCC(O)(C(=O)Nc1ccccc1C(F)(F)F)c1ccccc1OC (stereo not drawn),-0.2,-14.4,-4.1,0.708,6.0,-3.1,/,i,-6.4
CN1CCN(C(=O)c2cccc(-c3ccc4nncn4c3)c2)CC1,/,/,/,/,2.8,-4.6,/,i,/
C[C@H](CO)N1C[C@H](C)[C@@H](CN(C)S(=O)(=O)c2cccs2)Oc2c(NS(C)(=O)=O)cccc2C1=O,-1.0,-3.9,0.6,/,/,-0.2,/,i,/
C=CCCCCCCCCC(=O)NN,-21.0,-16.6,-3.7,0.628,-0.4,3.7,-0.6%,i,-5.0
COc1ccc(S(=O)(=O)Nc2cc3c4c(c2)CCN4C(=O)CC3)cc1OC,5.7,6.7,-2.0,0.706,-1.9,0.7,-3.1%,+,0.5
CCOc1ccc(S(=O)(=O)N2CCCC(C(=O)NCc3cccnc3)C2)cc1Cl (stereo not drawn),-5.3,-3.1,4.4,0.681,3.9,0.9,/,i,-4.0
C[C@H](CO)N1C[C@H](C)[C@H](CN(C)C(=O)Nc2ccc(C(F)(F)F)cc2)Oc2ccc(NC(=O)NC3CCCCC3)cc2CC1=O,0.5,-8.1,4.1,/,/,0.3,/,i,/
CCCCC(=O)NC1=C(C(=O)OC)SCC1,13.1,9.8,-0.5,0.683,-4.0,3.1,/,i,-1.3
O=C(CN1CCN(C2CCCCC2)CC1)c1c[nH]c2ccccc12,/,/,/,0.691,2.2,/,0.6%,/,32.1
COc1ccc(CN(C)C[C@@H]2Oc3ccc(NS(=O)(=O)c4ccc(F)cc4)cc3C(=O)N([C@H](C)CO)C[C@@H]2C)cc1,2.5,7.0,2.6,/,/,2.1,/,i,/
CC(C)CC(=O)Nc1ccc(C(=O)CN2C(=O)NC3(CCOc4ccccc43)C2=O)cc1 (stereo not drawn),-3.0,-11.8,1.9,0.638,2.9,3.7,-0.5%,+,/
COc1ccc(N2CCN(CCNC(=O)Nc3ccc(C)c(Cl)c3)CC2)cc1,-9.2,3.2,7.5,0.564,-1.2,5.6,0.9%,i,9.8
O=C(Cn1cnc2c(OCc3ccccc3)ncnc21)NCC1CCCO1 (stereo not drawn),13.2,4.7,4.0,0.719,-0.2,-0.3,0.1%,i,/
O=C(CN1C(=O)NC2(CCCC2)C1=O)Oc1ccc2ccc(=O)oc2c1,7.6,15.9,-3.0,0.707,3.9,-3.5,-5.5%,i,34.4
COc1ccccc1-c1nc(SCC(=O)N2CCC(C(N)=O)CC2)n[nH]1,-0.5,2.6,1.3,0.683,-1.5,0.6,-1.4%,i,-2.5
O=C1CC(Sc2nnnn2C2CCCCC2)C(=O)N1c1ccccc1 (stereo not drawn),/,/,/,0.596,-0.2,/,-4.2%&-2.8%,/,23.8
C[C@@H]1CN([C@@H](C)CO)C(=O)c2cc(NC(=O)CCC(F)(F)F)ccc2O[C@H]1CN(C)C(=O)Nc1ccccc1,4.2,14.4,-0.2,/,/,-10.5,/,i,/
Cc1ccc(N2CC(C(=O)NC3=NCCS3)CC2=O)cc1 (stereo not drawn),/,/,/,0.679,3.4,/,0.9%,/,8.5
COC(=O)c1noc(C)c1-c1ccnn1C(=O)c1ccc(Cl)cc1,8.8,-0.5,-0.4,0.688,1.0,0.1,-7.0%,i,41.3
CC(C)COC(=O)N(C)C[C@@H]1OCc2ccccc2-c2c(n(C)c3ccccc23)C(=O)N([C@H](C)CO)C[C@@H]1C,-6.0,-5.4,3.7,/,/,5.9,/,i,/
O=C(CNC(=O)c1nc[nH]c1C(=O)NCc1ccccc1)OCc1ccccc1,-22.2,-36.6,-1.3,0.66,5.0,6.9,/,i,/
NC(=O)COC(=O)CCCc1nc2ccccc2s1,/,/,/,0.663,-1.0,/,14.6%,/,-6.5
O=C(CN1CCN(c2ccccc2)CC1)Nc1ccncc1,9.0,5.3,0.8,0.673,-0.4,0.1,-0.4%,i,99.1*
O=[N+]([O-])c1ccc(C=NNc2ccccc2)cc1,-2.5,12.7,-3.3,0.588,46.5*,?,-5.4%,i,/
[2H]C(CCOS(N)(=O)=O)c1ccccc1 (stereo not drawn),-2.3,-2.0,-0.6,0.689,-0.9,/,/,i,-0.5
C[C@@H]1CN([C@@H](C)CO)C(=O)c2cccc(NS(=O)(=O)c3ccc(F)cc3)c2O[C@@H]1CN(C)C(=O)Nc1ccc2c(c1)OCO2,-0.3,-1.2,1.8,/,/,2.2,/,i,/
CC(C)(C)C(=O)N1CCN(c2ccc([N+](=O)[O-])cc2Cl)CC1,/,/,/,0.724,-0.2,/,8.8%,/,-2.8
Cc1ncc(CO)c(/C=N/NC(=O)c2ccoc2C)c1O,7.8,10.7,1.5,/,-2.2,2.2,8.9%,i,/
CC(C)NC(=O)C1(C)CCCN1C(=O)c1ccc2c(c1)C(C)(C)CCC2(C)C (stereo not drawn),-8.6,-26.5,-5.7,/,5.4,-0.8,/,i,/
O=C(Cc1ccc(Cl)cc1)NNc1c(F)c(F)cc(F)c1F,-8.1,-14.8,-10.2,0.66,-0.7,-4.9,31.3%,i,6.0
Cc1ccccc1NC(=O)CN1CCN(C(=O)c2ccco2)CC1,5.0,11.1,-2.0,0.715,-0.4,-2.5,-4.9%,i,-8.0
O=c1cc(Nc2ccc3c(c2)OCCO3)[nH]c(=O)n1Cc1ccc(F)cc1,5.8,3.4,0.3,0.671,-5.9,-1.2,20.1%,i,-11.6
Cc1cc(S(=O)(=O)Nc2cccnc2)c(Cl)cc1Cl,3.0,1.7,-1.8,0.659,0.7,0.6,4.6%,i,-16.4
CCCc1cc(=O)n2[nH]c(-c3ccc(C)cc3)cc2n1,/,/,/,0.75,0.6,/,17.2%,/,-1.7
CCC(=O)N(C)C[C@H]1Oc2cc(-c3cccc(OC)c3)ccc2S(=O)(=O)N([C@@H](C)CO)C[C@H]1C,-10.0,-19.1,-1.8,/,/,-3.0,/,i,/
O=C(Nc1ccc2c(c1)[C@@H]1C[C@@H](CC(=O)N3CCCCC3)O[C@@H](CO)[C@@H]1O2)NC1CCCC1,-0.7,3.4,0.0,/,/,2.3,/,i,/
COc1ccc(-c2ccc(CN3C(C(C)C)C(=O)N(Cc4cn(CCC5OCCO5)nn4)CCS3(=O)=O)cc2)cc1 (stereo not drawn),-8.4,-10.5,-0.4,/,-0.5,-2.4,/,i,/
C[C@H](CO)N1C[C@H](C)[C@@H](CN(C)C(=O)c2ccncc2)OCCCC[C@H](C)Oc2ccc(NC(=O)c3ccccc3)cc2C1=O,-2.3,-3.0,1.7,/,/,-5.4,/,i,/
CCOc1ccc(C2SCC(=O)N2c2c(C)n(C)n(-c3ccccc3)c2=O)cc1 (stereo not drawn),/,/,/,0.75,-3.8,/,-11.5%,/,-10.2
COc1cccc(NC(=O)C2(C)CCN2C(=O)CCC2CCCC2)c1 (stereo not drawn),/,/,/,/,-1.5,2.0,/,i,/
O=CNC1c2ccccc2CCc2ccccc21,-2.0,-4.5,-0.7,0.657,1.4,-0.3,-4.4%,i,/
CCC(Sc1nc(=O)cc(N)n1CCc1ccccc1)C(=O)Nc1cc(C)on1 (stereo not drawn),-1.2,-8.1,3.6,0.777,4.0,-8.0,-1.9%,i,-0.3
CCCCCCC(=O)Nc1cc2c(C)cc(=O)oc2cc1C,/,/,/,0.702,1.7,/,16.1%,/,3.9
COc1ccc([C@H]2CC(=O)C=C(c3ccc4[nH]ccc4c3)C2)cc1OC,1.0,-9.1,-1.1,/,5.7,4.8,/,i,-4.6
O=C(C[C@H]1C[C@H]2c3cc(NC(=O)c4cccnc4)ccc3O[C@H]2[C@H](CO)O1)NCCN1CCCCC1,1.1,1.9,-0.7,/,/,-10.4,/,i,/
CCOC(=O)N1CCC2(CC1)CC(=O)c1cc(O)ccc1O2,/,/,/,0.725,2.7,/,6.5%,/,16.9
O=C(CCN1CCCCC1)NCC[C@H]1CC[C@H](NC(=O)Cc2cccnc2)[C@@H](CO)O1,-0.3,2.8,-2.0,/,/,0.0,/,i,/
O=C(NC1CCN(Cc2ccccc2)C1)c1cc(S(=O)(=O)N2CCOCC2)ccc1Cl (stereo not drawn),/,/,/,0.7,0.1,-0.3,/,i,-1.9
C[C@@H]1CCCCO[C@H](CN(C)C(=O)NC2CCCCC2)[C@@H](C)CN([C@H](C)CO)C(=O)c2cc(NC(=O)Nc3cccc4ccccc34)ccc2O1,4.2,9.7,-1.2,/,/,-1.3,/,i,/
COc1ccc(N2CC(O)(c3ccc(F)cc3)[N+]3=C2CCCC3)cc1 (stereo not drawn),4.3,-2.3,-0.3,0.68,0.0,-0.2,/,i,-6.4
CCOC(=O)C1(C)CCCCCN1C(=O)c1ccc(C(=O)OC)cc1 (stereo not drawn),/,/,/,/,0.0,-0.9,/,i,/
Cc1ccc(NC(=O)Cn2c(=O)ccn(Cc3ccccc3)c2=O)cc1S(=O)(=O)N1CCOCC1,-13.5,-14.1,-3.1,/,0.5,-1.0,/,i,/
CCOc1ccc(N/C(C)=C/C(=O)c2ccc3c(c2)OCCO3)cc1,0.6,9.9,-1.3,0.663,-0.7,-2.5,/,i,-27.9
CCCCN1CC(O)=C(c2nc3ccccc3[nH]2)C1=N,/,/,/,0.678,1.2,/,32.9%,/,4.2
CCc1ccccc1-n1nnc(-c2ccccc2)n1,-7.1,-11.2,0.7,0.677,-0.6,-1.2,-5.2%,i,-0.1
COc1ccc(C2C(C(=O)Nc3ccccn3)=C(C)Nc3ncnn32)c(OC)c1 (stereo not drawn),-1.0,0.5,-4.2,0.762,-4.2,-2.7,4.6%,i,-75.6
Cc1cccc(C(=O)NCCC(=O)Nc2ccc(F)c([N+](=O)[O-])c2)c1,-3.5,12.6,1.4,0.683,-3.8,2.3,/,i,-5.5
NC(=O)c1c(NC(=O)CSc2nc3c(c(C(F)(F)F)n2)CCc2ccccc2-3)sc2c1CCCC2,5.1,-3.7,-7.2,0.771,-3.5,3.9,21.1%,i,-0.8
Cn1nnnc1NN=Cc1ccccc1,7.9,8.3,-0.7,/,0.2,0.7,-0.8%,i,/
N#Cc1ccc(CN2CCN(C(=O)c3ccccc3)CC2)c(Cl)c1,/,/,/,0.721,2.5,/,-7.6%,/,-4.7
CN(CC(=O)Nc1cccc(F)c1)C(=O)c1ccc(N2C(=O)c3ccccc3C2=O)cc1,12.9,10.8,-0.1,0.678,3.1,-0.4,/,i,-2.4

# Sorted by molecular weight (high to low): part of the list above
SMILES,Ecoli rRNA inh,Ecoli rRNA inh OD600,Ecoli rRNA inh RFP,Ecoli growth,HNF4A DNA FP,MLL AF4-AF9 inh,Vif A3G,FGF22 binding,ALR H2O2 inh
COc1ccc(C2C(C(=O)Nc3ccccn3)=C(C)Nc3ncnn32)c(OC)c1 (stereo not drawn),-1.0,0.5,-4.2,0.762,-4.2,-2.7,4.6%,i,-75.6
COC(=O)c1noc(C)c1-c1ccnn1C(=O)c1ccc(Cl)cc1,8.8,-0.5,-0.4,0.688,1.0,0.1,-7.0%,i,41.3
CCCCC(=O)NC1=C(C(=O)OC)SCC1,13.1,9.8,-0.5,0.683,-4.0,3.1,/,i,-1.3
